Mtb growth = Confirmatory growth inhibition assay against Mycobacterium tuberculosis H37Rv, potency (AID 1949). most inactive calls were filed without a number and no value below 0 was filed. inhibition, % at 10 µg/mL; hits with a dose series show IC50 in µg/mL. 1.6% of 100,000 active;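 active = confirmed in a dose series; inconclusive = about 50% or more but not retested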;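 note: bacteria grown 7 days with compound before Alamar blue readout; 0% = untreated bacteria and 100% = reference antibiotic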
* = called active by the depositor; i = inactive; u = inconclusive. The list is partial; the hit share may differ from the screen's.

SMILES	Mtb growth
O=C(NCC1OCCc2ccccc21)C(=O)Nc1ccccc1 (stereo unspecified)	i
O=C(Cn1c(-c2ccccn2)nc2ccccc21)NCc1ccccc1	i
COc1ccc(C(=O)Nc2nc(C)cc(C)n2)cc1	i
Cc1ccc(C(=O)Nc2ccc(I)cc2C(F)(F)F)cc1C	i
COc1ccccc1NC(=S)Nc1cc(C)ccc1C	i
CC(C)(C)c1ccccc1NC(=O)c1cc(Cl)ccc1Cl	i
Cc1ccc(-n2c(C)nnc2SCC(=O)Nc2ccc(F)cc2)cc1C	i
CC1CCc2c(sc3[nH]c(=S)[nH]c(=S)c23)C1 (stereo unspecified)	1%
CCOc1ccc(CNc2ccc(O)cc2)cc1	i
O=[N+]([O-])c1cccc(-c2ccc(-c3nn4c(Cc5ccccc5)nnc4s3)o2)c1	3%
Cc1scc(C(=O)NCC2CCCCC2)c1C	i
COCCCNC(=S)NCc1ccc(S(N)(=O)=O)cc1	i
O=C(NCCCn1ccnc1)c1cc(-c2ccccc2Cl)nc2ccccc12	i
CSCCC(NC(=O)/C(=C/c1ccccc1)NC(C)=O)C(=O)O (stereo unspecified)	i
Cc1cccc(NC(=O)CNC(=O)C2CCCCC2)c1	i
CCOc1cc(C2CC(=O)NC(SCC(=O)Nc3ccc(F)cc3)=C2C#N)ccc1O (stereo unspecified)	i
CC1(CNC(=O)C(c2ccccc2)c2ccccc2)C2CC3CC(C2)CC1C3 (stereo unspecified)	i
c1cc(-c2nnc3sc(-c4ccc5c(c4)OCCO5)nn23)ccn1	i
Cc1ccc(NC(=O)C2C3C=CC(O3)C2C(=O)O)c(Br)c1 (stereo unspecified)	i
Brc1ccc2[nH]c3nc(SCCN4CCOCC4)nnc3c2c1	i

Some of the entries so far, with each value named.
SMILES: Brc1ccc2[nH]c3nc(SCCN4CCOCC4)nnc3c2c1
  Mtb growth: i
SMILES: O=C(NCCCn1ccnc1)c1cc(-c2ccccc2Cl)nc2ccccc12
  Mtb growth: i
SMILES: CC1(CNC(=O)C(c2ccccc2)c2ccccc2)C2CC3CC(C2)CC1C3 (stereo unspecified)
  Mtb growth: i
SMILES: CCOc1cc(C2CC(=O)NC(SCC(=O)Nc3ccc(F)cc3)=C2C#N)ccc1O (stereo unspecified)
  Mtb growth: i

(more compounds)
SMILES	Mtb growth
COC(=O)c1ccc(COc2cc(C)cc3oc(=O)cc(-c4ccc(OC)cc4)c23)cc1	i
O=C(Nc1ccccn1)C1CC1(c1ccccc1)c1ccccc1 (stereo unspecified)	9%
O=C(c1ccc(Br)cc1)c1ccc(N2CCCCC2)c([N+](=O)[O-])c1	1%
COC(=O)c1sc(NC(=O)c2c(C)noc2C)nc1C	i
CC(=O)Nc1ccc(S(=O)(=O)Nc2cc(C)ccn2)cc1	i
CCOc1cc(NC(=O)C(Cl)Cl)c(OCC)cc1NC(=O)c1ccccc1	i
CCc1c(C)c2ccc(OCc3cc(C)cc(C)c3)cc2oc1=O	5%
CSc1nc(C)cc(Oc2ccccc2)n1	i
CCN(CC)C(=O)CSc1ncnc2sc(C)c(C)c12	i
Cc1coc2c(C)c3oc(=O)c4ccccc4c3cc12	i
Cc1cc(C(=O)OCc2ccccc2F)ccc1[N+](=O)[O-]	i
O=C(COc1ccc2c3c(c(=O)oc2c1)CCCC3)c1ccc(F)cc1	5%
CCC(C)c1ccc(NC(=S)NC(C)c2cc(OC)ccc2OC)cc1 (stereo unspecified)	i
O=C(Nc1cc(C(F)(F)F)ccc1Cl)c1ccc2nc[nH]c2c1	i
Cn1cccc1-c1nc2ccccc2n1Cc1ccccc1	5%
Cc1cccc(C)c1OCC(=O)Nc1sc2c(c1C(=O)NCc1ccco1)CCC2	i
O=C(Cn1cnc2ccccc2c1=O)Nc1ccc(Br)cc1	i
CCOc1ccc2nc(NC(=O)CN3C(=O)c4ccccc4C3=O)sc2c1	i
Cc1c(Cl)cccc1NC(=O)c1ccc(CN2CCOCC2)cc1	1%
O=C1OCCC1Sc1nc2ccccc2s1 (stereo unspecified)	i
COc1cccc(CNC2CCCC2)c1OC	i
CC(C)CC(=O)N1CCN(S(C)(=O)=O)CC1	i
C=CCn1c(=O)c2c(C)c(C)sc2n2c(=S)[nH]nc12	1%
Cc1cc(C)cc(C(=O)Nc2cc(C(F)(F)F)ccc2N2CCCC2)c1	i
CC(NS(=O)(=O)c1ccccc1)C(=O)Nc1ccc(S(N)(=O)=O)cc1 (stereo unspecified)	i
O=C(Nc1cccc(C(F)(F)F)c1)Nc1ccc2c(c1)OCCO2	i
C=CCn1c(SCC(=O)Nc2cc(C)ccc2OC)nc2sc3c(c2c1=O)CCCC3	26%
O=C(NCCCNC1CCCCC1)c1cc2ccccc2[nH]1	i
COc1cccc(S(=O)(=O)Nc2ccc(Cl)c(Cl)c2)c1	2%
CCOc1ccccc1N(CC(=O)Nc1ccc(OC)c(OC)c1)S(C)(=O)=O	i
Cc1ccc2oc3c(c(=O)c2c1)C(c1ccc(O)cc1)N(Cc1ccc(F)cc1)C3=O (stereo unspecified)	20%
Cc1nnc(SCc2nc(C(c3ccccc3)c3ccccc3)no2)n1-c1ccccc1	i
CCCc1cc(=O)oc2cc(C)c(CN3CCCC3)c(O)c12	9%
CCOc1ccc(C#N)cc1Br	i
Cc1cc(NC(=O)Cc2ccc(Cl)cc2)ccc1-c1cc2ccccc2oc1=O	i
O=C(Nc1cccc(C(=O)Nc2cccc(Br)c2)c1)c1ccccc1	35%
Cc1ccc2[nH]c(O)c(N=NC(=O)c3cccc([N+](=O)[O-])c3)c2c1	i
N/C(=N\OC(=O)COc1ccc(Cl)cc1Cl)c1ccc(Cl)cc1	5%
Cc1ccc(CNC(=O)COc2cccc3ccccc23)cc1	2%
CCCN(CCC)c1ncnc2ccc(Br)cc12	i

Looked up by structure from the list above (2):
SMILES	Mtb growth
CSCCC(NC(=O)/C(=C/c1ccccc1)NC(C)=O)C(=O)O (stereo unspecified)	i
c1cc(-c2nnc3sc(-c4ccc5c(c4)OCCO5)nn23)ccn1	i

Following part:
SMILES	Mtb growth
O=c1oc2cc(OCCc3ccccc3)ccc2c2ccccc12	i
O=C(CSCc1ccccc1Cl)NNC(=O)c1cccnc1	i
COC(=O)c1ccc(CSc2nnc(N)s2)o1	i
C=CCN1C(=O)/C(=C2\SC(N3CCCCC3)=NC2=O)c2cc(Br)ccc21	1%
CCOc1cc(C(=O)N2CCC(C(=O)OC)CC2)cc(OCC)c1OCC	i
CCSc1nnc(NC(=O)c2csc3ccccc23)s1	i
COc1ccc(NC(=O)c2cnccn2)cc1OC	i
CCNC(=O)CN(c1ccccc1)S(=O)(=O)c1ccc(Cl)cc1	i
CCN(CC)c1ccc(C(=O)Nc2cccc(OC)c2)cc1[N+](=O)[O-]	i
COc1ccccc1NC(=O)c1ccc(COc2ccccc2OC)cc1	i
COC(=O)c1ccccc1NC(=O)c1cc2ncc(Br)cn2n1	i
COC(=O)c1cc(OC)c(Br)c(OC)c1	2%
COc1ccc(-c2ccc(S(=O)(=O)N3CC(C)CC(C)C3)cc2)cc1 (stereo unspecified)	i
COc1ccc(C)cc1S(=O)(=O)NCc1ccncc1	i
COc1ccc(-c2cc(C(F)(F)F)nc(SCC(=O)Nc3cn(C)nc3C)n2)cc1OC	i
COc1ccc(-c2n[nH]c(=S)n2-c2ccc(Oc3ccccc3)cc2)cc1	i
Cc1cccc(NS(=O)(=O)c2ccc(NC(=O)c3ccc(N(C)S(C)(=O)=O)cc3)cc2)c1	i
CC1(C)CC(NC(=O)Cc2ccc(Cl)cc2)CC(C)(C)N1	i
COc1ccc(NC(=O)C2(c3ccccc3)CCCC2)cc1	0%
Cc1cc(C(=O)NC2CCCc3ccccc32)no1 (stereo unspecified)	i
Cc1cc(C)c(S(=O)(=O)Nc2ccc3c(c2)OCO3)c(C)c1	1%
O=C(Nc1ccc(Cl)c(Cl)c1)c1cc2cc(Cl)cc(Cl)c2oc1=O	i
COC(=O)c1cc(C(=O)OC)n(Cc2ccc(F)cc2)n1	i
Cc1c(C(=O)N2CCN(CCc3ccccc3)CC2)oc2ccccc12	i
Cc1ccc(OC(=O)c2ccc([N+](=O)[O-])o2)c(-n2nc3ccccc3n2)c1	i
Cc1cccc(-c2nnc(SCC(=O)Nc3nc(-c4ccccc4)cs3)n2-c2ccccc2)c1	14%
CCN1CCN(C(=O)CN(c2ccccc2)S(=O)(=O)c2ccc(OC)c(OC)c2)CC1	i
COC(=O)Nc1ccc(S(=O)(=O)N2CCCC(C(=O)N(C)Cc3ccccc3)C2)cc1 (stereo unspecified)	i
Cc1c(NS(=O)(=O)c2cccc3nonc23)c(=O)n(-c2ccccc2)n1C	i
CC(C)(C)c1cc(C(F)(F)F)c(C#N)c(SCC(=O)Nc2sc3c(c2C#N)CCCC3)n1	i
O=C(NC(=S)NCc1ccco1)c1sc2ccccc2c1Cl	i
CCC(c1ccccc1)c1nnc(NC(=O)c2cccs2)s1 (stereo unspecified)	0%
Cc1ccc(S(=O)(=O)N2CCC(N3CCOCC3)CC2)cc1	i
Cc1cc(C)n2c(SCC(=O)Nc3nccs3)nnc2n1	i
CCOc1ccccc1CNc1ncn[nH]1	i
O=C(NCc1ccc(Cl)cc1)c1cc2ccccc2o1	i
CCCCCc1nnc(NC(=O)CCCOc2ccccc2)s1	3%
COCc1cc(C)nc(SCC(=O)N2CCc3ccccc32)c1C#N	i
CCOc1ccccc1NC(=O)CN(c1cc(OC)ccc1OC)S(=O)(=O)c1ccc(OC)c(OC)c1	i
O=C1CCC(=O)N1OCCOc1ccc(Cl)cc1Cc1ccccc1	0%
Cc1[nH]c2ccccc2c1C(=O)C(=O)N1CCCc2ccccc21	i
COc1cccc(OC)c1C(=O)Nc1nnc(C(F)(F)F)s1	i
COc1ccc(-c2noc(CNC(C)C)n2)cc1	i
CCCC(=O)Nc1cc(-c2nc3cc(C(C)C)ccc3o2)ccc1OC	i
CCOC(=O)c1c(NC(=S)NC(C)C2CCCO2)sc(C)c1-c1ccccc1 (stereo unspecified)	i
CS(=O)(=O)N1CCN(c2nc(-c3ccc(F)cc3)cs2)CC1	i
N#CCCN(CCC#N)S(=O)(=O)c1cc(Cl)ccc1Cl	i
COc1cc([N+](=O)[O-])cc2sc(N)nc12	i
Cc1ccc(NC(=O)CCC2CCCC2)cc1[N+](=O)[O-]	44%
CCc1ccc(OCC(=O)Oc2ccc(Cl)cc2)cc1	1%

Continued.
SMILES	Mtb growth
O=C(Nc1cccc(Br)c1)Oc1ccccc1	i
O=C(Nc1ccc2[nH]c(=O)[nH]c2c1)c1ccco1	i
COc1ccc(C(=O)N2CCN(c3cc(Cl)ccc3C)CC2)cc1	12%
O=C(Nc1cccc(Oc2ccc3c(c2)C(=O)NC3=O)c1)c1ccc(Br)o1	1%
CCCCc1cc(=O)oc2cc(OC(C)C(=O)OCC)c(Cl)cc12 (stereo unspecified)	<0.1µg/mL*
O=C(NC1=NCCS1)c1cc2c(s1)CCCCCC2	i
N#CCCSc1nc(-c2cccs2)cc(-c2ccc(Cl)cc2)c1C#N	4%
COC(=O)NC1CCC(CC2CCC(NC(=O)OC)CC2)CC1 (stereo unspecified)	i
O=c1c2ccccc2nc(SCc2nnc(-c3ccccc3)o2)n1-c1ccccc1	i
O=C(Nc1nnc(-c2cccc(Br)c2)s1)C1CCCCC1	1%
CC1=NN(c2ccc(Cl)c(C(=O)O)c2)C(=O)/C1=C/c1ccccc1Cl	i
COc1ccc(Cl)cc1S(=O)(=O)N1CCC(C)CC1	i
CCC(=O)Nc1ccc(C(=O)Nc2ccc(F)cc2F)cc1	7%
CCOC(=O)c1cnc2sccn2c1=O	i
CCCC(=O)Nc1ccc(NC(=S)NC(=O)c2ccccc2Cl)cc1	i
CC(=O)c1c(C(C)=O)c(C)n(-c2ccc(Cl)c(N)c2)c1C	3%
CC1(C(=O)Nc2ccc(OCC(=O)N3CCOCC3)cc2)CC1(Cl)Cl (stereo unspecified)	i
O=C(CCC(=O)OC(c1ccccc1)c1ccccc1)Nc1ccccc1C(F)(F)F	i
COc1c(C)cc(Br)cc1C(=O)Nc1ccc(S(N)(=O)=O)cc1	i
CCOc1cc(C=O)c(Cl)cc1OC(C)C	i
Nc1cc(=O)[nH]c(SCC(=O)Nc2nccs2)n1	i
Brc1ccc(-c2ncc3ccccn23)cc1	2%
O=C(Nc1ncc(Cc2ccc(Br)cc2)s1)c1ccccc1Cl	i
COc1cc(OC)cc(C(=O)NC(C)c2ccc(Br)cc2)c1 (stereo unspecified)	i
CCCCNc1ccc2cccc(O)c2n1	u
CSc1ccc(C2Nc3ccccc3NC3=C2C(=O)CCC3)cc1 (stereo unspecified)	i
Nc1ncnc2c1c1c(c(=O)n2-c2ccccc2)CCCC1	i
Cc1nc(NC(=O)c2sc3ccccc3c2Cl)ccc1Br	i
Cc1ccc(S(=O)(=O)N(CC(=O)N2CCOCC2)CC(=O)N2CCOCC2)cc1	i
C=CCOc1ccccc1CNCCCN1CCOCC1	1%
COc1ccc(NC(=O)Cc2nc3ccccc3[nH]2)cc1	i
CCOc1ccc(-c2cc(C(=O)N/N=C/c3cccnc3)[nH]n2)cc1	i
O=C(NC1CCCCC1)N1CCC(Cc2ccccc2)CC1	i
